Cruzain Triton – cruzain (T. cruzi) inhibition with detergent | 200,000 tested, 0.43% active | Potency, µM, for the others: max response, negative = inhibition, usual class: inhibitors | purified cruzain, Z-FR-AMC fluorescence, 0.01% Triton; active means well fitted curve in the direction sought with a large enough effect; inconclusive means small, poorly fitted or top-dose-only effect, or another doubt; inactive means no such curve, though single readings can be large; an effect the other way counts as inactive or inconclusive;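 further: plate controls were neutral wells for no effect and buffer without enzyme for full effect; nearly all actives have a fitted effect of over 40% in size; top concentration of the series not given in the record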
Target sequence (P25779 123-467 limits assumed): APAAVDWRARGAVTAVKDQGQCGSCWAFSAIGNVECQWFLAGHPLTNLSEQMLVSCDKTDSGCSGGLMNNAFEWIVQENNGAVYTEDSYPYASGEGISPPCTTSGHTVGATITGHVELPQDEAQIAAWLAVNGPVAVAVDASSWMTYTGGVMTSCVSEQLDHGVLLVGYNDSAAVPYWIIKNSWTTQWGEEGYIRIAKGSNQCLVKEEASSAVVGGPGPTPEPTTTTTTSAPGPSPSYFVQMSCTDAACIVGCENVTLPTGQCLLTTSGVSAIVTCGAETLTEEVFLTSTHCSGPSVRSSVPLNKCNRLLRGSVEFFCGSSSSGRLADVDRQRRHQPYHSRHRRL
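15 min RT preincubation of 1.5 nM cruzain with compound, then 2 uM Z-FR-AMC added; kinetic AMC fluorescence, 60 s delta. Triton X-100 0.01%, pH 5.5.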
MARV entry inh – blocks Marburg virus binding to or entry into cells; Marburg virus pseudotyped entry inhibition, cell reporter; control for the full effect not named in the record; about a third of the inactives were read at about 46 µM; Potency, µM (series often up to 37.8 µM), without a hit: top-dose activity change, negative = inhibition, actives largely listed as inhibitors; 300,000 tested, 1.8% active; AID 540276; active = well fitted inhibition curve with a large enough effect; inconclusive = small, poorly fitted or top-dose-only effect, or effect the other way; inactive = flat fitted curve, though single readings scatter; tested in HEK293 cells; about a fifth of its hits are not listed in these tables; further: on the % scale 0 is the no-effect control and ±100 the full control effect; luciferase read-out
Lassa entry inh – inhibitors of Lassa virus binding or cell entry | Lassa virus pseudotype entry inhibition, cell reporter; control for the full effect not named in the record | Potency, µM (highest dose often 37.9 µM), for inactives: at the highest dose activity change, negative = inhibition, hits mostly inhibitors | 300,000 tested, 1.2% active; active means well fitted inhibition curve with a large enough effect; inconclusive means small, poorly fitted or top-dose-only effect, or effect the other way; inactive means flat fitted curve, though single readings scatter; tested in HEK293 cells; further: on the % scale 0 is the no-effect control and ±100 the full control effect; nearly all actives have a fitted effect of over 50% in size; luciferase read-out
SARS PLP yeast – blocks SARS-CoV papain-like protease in a yeast assay; S. cerevisiae expressing SARS-CoV PLpro, growth rescue; control for the full effect not named in the record; Potency, µM (series often up to 32.9 µM), inactives show at the top dose activity, positive = growth rescue; 330,000 tested, 0.19% active; further: 0% is about no effect; nearly all actives have a fitted effect of over 55% in size; growth read by luminescence after 48 h
Cruzain noTriton – blocks cruzain activity in detergent-free assay; P25779; purified cruzain, Z-FR-AMC fluorescence, no detergent; 200,000 tested, 2.3% active; Potency, µM, for inactives: max response, negative = inhibition, usual class: inhibitors; AID 1476; active means well fitted curve in the direction sought with a large enough effect; inconclusive means small, poorly fitted or top-dose-only effect, or another doubt; inactive means no such curve, though single readings can be large; an effect the other way counts as inactive or inconclusive;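 further: plate controls were enzyme without inhibitor for no effect and buffer without enzyme for full effect; nearly all actives have a fitted effect of over 40% in size; top concentration of the series not given in the record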
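Purified cruzain at 1.5 nM, pre-incubated 15 min with compound at room temperature in 100 mM sodium acetate pH 5.5, 5 mM DTT, 0.00005% Triton X-100. Reaction started with 2 uM Z-FR-AMC; AMC fluorescence increase over 60 s gives rate.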
RE007 growth inh – less growth of the S. pombe RE007 Vpr strain; S. pombe RE007 Vpr strain, BacTiter-Glo ATP luminescence, 24 h; control for the full effect not named in the record; Potency, µM (titrated, usually from 92.2 µM), for the others: top-dose activity change, negative = less growth; 360,000 tested, 0.21% active; AID 651644; active = well fitted falling curve with a large enough effect; inconclusive = small, poorly fitted or top-dose-only effect; inactive = no such curve, though single readings can be large or run the other way;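 further: on the % scale 0 is the no-effect control and ±100 the full control effect; nearly all actives have a fitted effect of over 50% in size; the assay follows cell death caused by Vpr and the record does not say whether a fall means rescue or toxicity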
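Fission yeast RE007 carrying one integrated HIV-1 vpr copy, seeded at OD 0.01 in PMG+AL medium with 23 nL pinned compound. Grown 24 h at 30 degrees; viability read by BacTiter-Glo luminescence after 5 min.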
NS1 inh – influenza NS1 inhibition; S. cerevisiae slowed by influenza A NS1, growth recovery by OD600; Potency, µM (series often up to 46.1 µM), for the others: at the highest dose activity, positive = more growth; 270,000 tested, 0.4% active; AID 2326; further: actives are rising curves; nearly all actives have a fitted effect of over 50% in size
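Compounds were scored for reversing the slow growth caused by influenza A NS1 in S. cerevisiae, measured by optical density at 600 nm. Assay medium contained 2% galactose at pH 6.0; NS1-free yeast of the same strain were the positive control.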
2A StopGo – lowers the luciferase signal of an FMDV 2A StopGo reporter. 410,000 tested, 1.2% active. AID 1159524. Potency, µM (top dose mostly 57.9 µM), for the others: at the top dose signal change, negative = less light. human cells with a luciferase reporter of 2A StopGo recoding; control for the full effect not named in the record; active = well fitted falling curve with a large enough effect; inconclusive = small, poorly fitted or top-dose-only effect; inactive = no such curve, though single readings can be large or run the other way; tested in HEK293T cells; further: on the % scale 0 is the no-effect control and ±100 the full control effect; nearly all actives have a fitted effect of over 45% in size; luciferase light after 4 h
An asterisk follows results filed as active; ? = inconclusive; nt = not tested or not shown; & = joins results of further samples; ! = not confirmed by another sample; [ ] = another dose, or the depositor's remark. Unless noted, the call rests on the fitted dose curve; in most records, active means well fitted rising curve with a large enough effect; inconclusive means small, poorly fitted or top-dose-only effect; inactive means no such curve, though single readings can be large or run the other way. Potency means the concentration at half of the fitted maximal effect.

SMILES	Cruzain Triton	MARV entry inh	Lassa entry inh	SARS PLP yeast	Cruzain noTriton	RE007 growth inh	NS1 inh	2A StopGo
Cc1cc(C)nc(NC(=O)c2cccs2)c1	nt	nt	nt	-8%	nt	0%	-4%	20%
COc1ccc(C(OC(=O)c2ccco2)C(=O)NC2CCCCC2)cc1OC (stereo unspecified)	6.6%	12%	8%	2%	3%	-3%	2%	0%
O=C(O)CNS(=O)(=O)c1ccc2c(c1)CCCC2	nt	9%[46.1 µM]	11%[46.1 µM]	-7%	nt	12%	nt	26%
O=C(O)CNC(=O)C1(NC(=O)OCc2ccccc2)CCCC1	nt	2%	17%	nt	nt	16%	nt	-4%
COc1cc(C=O)ccc1OCCCOc1ccccc1[N+](=O)[O-]	-7.7%	19%	0%	10%	-17%	-2%	-21%	29%
Cc1ccc(C(=O)Nn2c(N)c(S(=O)(=O)c3ccc(C)cc3)c3nc4ccccc4nc32)cc1	-6.0%	-3%	13%	12%	25%	7%	?	14%
CN(Cc1ccccc1)C(=O)C1CCN(S(=O)(=O)c2ccc3c(c2)oc(=O)n3C)CC1	0.4%	1%[46.1 µM]	-1%[46.1 µM]	nt	?	nt	nt	0%
CN1CC=C2C(C#N)=C(N)C(C#N)(C#N)C(c3ccsc3)C2C1 (stereo unspecified)	-9.6%	?	1%	6%	-2%	9%	7%	?
Cc1ccc(NC(=O)CN2C(=O)C(c3ccc(C(C)(C)C)cc3)=NC2(C)C)cc1	-6.4%	4%[46.1 µM]	5%[46.1 µM]	nt	24%	nt	nt	-4%
O=C(COc1cc(Cl)ccc1Cl)Nc1ccc2c(c1)CCC2	-1.0%	10%	26%	3%	25µM*	3%	5%	32%[activator]
COc1ccccc1NC(=O)Cn1c(=O)n(Cc2ccco2)c(=O)c2oc3ccccc3c21	-2.3%	nt	-6%[46.1 µM]	nt	-5%	nt	nt	?
CSCC(C)N1CCC(CO)(CCCc2ccccc2)CC1 (stereo unspecified)	nt	-9%[14.2 µM]	17%	1%	nt	-3%	-1%	-14%
CCCc1nnc(SCC(=O)N2CCCCC2C)n1CC1CCCO1 (stereo unspecified)	2.1%	4%	-15%	4%	-1%	-8%	20%	3%
O=C(Nc1ccccc1C(F)(F)F)N1Cc2ccccc2Oc2ncccc21	-2.0%	nt	22%[46.1 µM]	nt	-14%	nt	nt	-10%
CCOc1ccc(/C=C2/C(=O)N(c3ccc(OC)cc3)C(=S)N2CC(=O)OC)cc1OCC	0.0%	-17%	?	-27%	?	-2%	-3%	-18%
Cc1ccc(S(=O)(=O)N(C)C)cc1NC(=S)NCCc1ccccn1	nt	-7%	-2%	1%	nt	1%	nt	-1%
CCOc1ccc(CCNC(=O)CCc2nnc3ccc(N4CCOCC4)nn23)cc1	nt	nt	nt	5%	nt	-4%	9%	-9%
COc1ccc(NC(=O)CSc2n[nH]c(N)n2)cc1OC	nt	nt	nt	2%	nt	-6%	6%	-17%
Nc1ncnc2oc(-c3ccco3)c(-c3ccco3)c12	-18%	?	-14%	-15%	-12%	3%	?	nt
CC(OC(=O)c1oc2ccccc2c1COc1ccccc1)C(N)=O (stereo unspecified)	nt	?	-4%[46.1 µM]	-6%	nt	-12%	4%	-21%
CC(/C=C/c1cccc([N+](=O)[O-])c1)=N/NC(=O)c1cccnc1	-11%	-26%	-11%	-41%	?	-12%	-7%	-7%
CNC(=O)CCCc1nc(-c2ccccc2Cl)no1	3.8%	2%	6%	-6%	3%	7%	-45%	26%
CN1CCC(N(C)C(=O)Cc2ccccc2[N+](=O)[O-])CC1	nt	?	0%[46.1 µM]	1%	nt	-18%	1%	-9%
COc1ccc(NC(=O)c2cc(S(=O)(=O)N(Cc3ccccc3)c3ccccc3)ccc2Cl)cn1	-1.7%	?	-2%	-7%	-17%	-2%	17%	-11%
CC(=O)OC(Cn1ccnc1)c1ccccc1 (stereo unspecified)	6.5%	7%	5%	-1%	-3%	-3%	0%	-6%
CCOC(=O)C1(Cc2ccccc2)CCN(Cc2cccc3nccnc23)CC1	nt	?	26%[46.1 µM]	0%	nt	-5%	-2%	?
CC1SC(c2ccc(F)cc2)N(CCc2ccccc2)C1=O (stereo unspecified)	nt	0%[46.1 µM]	3%[46.1 µM]	-1%	nt	8%	-7%	11%
O=C(NCc1ccc(F)cc1)C1CCCN(C(=O)NCc2ccccc2)C1 (stereo unspecified)	nt	1%[46.1 µM]	-2%	1%	nt	3%	15%	2%
Cc1ccc(OCC(O)CN2CCOCC2)c(C)c1 (stereo unspecified)	nt	nt	nt	-3%	nt	-5%	20%	15%
C=CC#CC1(O)CC(C)[N+](C)(C)CC1C (stereo unspecified)	nt	?	27%	-2%	nt	61%	nt	-7%
O=c1cc(-c2cccc(F)c2)oc2ccccc12	nt	14%[46.1 µM]	4%[46.1 µM]	nt	nt	?	nt	21%
NC(=O)[C@@H]1CCCN1Cc1nc(Cc2ccccc2F)no1	nt	nt	nt	1%	nt	22%	2%	-1%
CCCCCCCN1C=CC(=O)CC1	nt	nt	nt	-3%	nt	7%	0%	-23%
COC(=O)Nc1sc2c(c1C(N)=O)CCC(C)C2 (stereo unspecified)	nt	6%&6%	?	0%	nt	9%	-3%	-1%
COC(=O)c1ccc2c(=O)n(-c3ccccc3)c(SCN3C(=O)c4ccccc4C3=O)nc2c1	0.6%	-8%	?	1%	-2%	-5%	22%	19%
Cc1ccc(SC[C@H](C)CN2CC[C@H](C(C)(C)C)CCC2=O)cc1	nt	nt	nt	-12%	nt	0%	-89%	?
COc1cc2nc(SCc3cccc(Cl)c3)n3nc(CCn4nc(C)cc4C)nc3c2cc1OC	-0.7%	5%[46.1 µM]	7%[46.1 µM]	nt	-1%	nt	nt	-9%
Cc1ccc(NCCC(=O)c2ccc(Cl)cc2)cc1	2.9%	13%	2%	-1%	?	8%	-7%	13%
O=C(OCC(=O)N1CCCc2ccccc21)c1ccc(Br)o1	-1.3%	11%	5%	-3%	13%	5%	-51%	-1%
COC(=O)c1sc(S(=O)(=O)Nc2c(C)nn(C)c2C)c(C(=O)OC)c1C	nt	-26%[46.1 µM]	-3%	3%	nt	10%	nt	50%[activator]
CO/N=C(/C)CCS(=O)(=O)c1ccccc1	nt	-14%[46.1 µM]	4%[46.1 µM]	1%	nt	-5%	nt	-7%
COc1ccccc1N1CCN(CC(=O)Nc2ccc(C)c(F)c2)CC1	3.5%	3%	-5%	-9%	12%	-9%	-39%	?
Cc1ccccc1NC(=S)c1nc2ccccc2[nH]1	-7.4%	?	9%	nt	1%	?	-66%	7%
O=C(O)Cc1cccc(=O)c(O)c1C(=O)O	nt	?	24%[46.1 µM]	nt	nt	9%	nt	-12%
CNC(=O)CSc1nnc(CCc2ccccc2)n1-c1ccccc1	2.3%	-2%	-1%	6%	2%	-5%	14%	nt
Cc1cc(C)n2nc(C(=O)N/N=C/c3ccc(Cl)cc3)nc2n1	nt	2%	3%	12%	nt	-4%	nt	16%
CCn1nc(C)c(NC(=O)CSc2nnc(-c3ccco3)n2C)c1C	-0.1%	-1%	4%	-3%	-4%	5%	30%	nt
CCC1(CC)Cc2ccccc2-c2[nH]c(=S)[nH]c(=O)c21	nt	1%[46.1 µM]	9%[46.1 µM]	nt	nt	8%	nt	-28%
COc1ccc(NC(=O)Nc2ccccc2C)c(OC)c1	6.2%	18%	3%	-1%	-1%	-17%	0%	19%
O=C(c1ccc(-c2ccc([N+](=O)[O-])cc2Cl)o1)N1CCOCC1	nt	?	5%[46.1 µM]	-1%	nt	-3%	-8%	0%
Cc1cc(NC(=O)CSc2ncnc3c2cnn3-c2cccc(Cl)c2)no1	nt	1%[46.1 µM]	0%[46.1 µM]	-2%	nt	7%	0%	-14%
Cc1ccc(-c2c[n+](CC(=O)N3c4ccccc4Sc4ccccc43)c3n2CCC3)cc1	-4.2%	-12%	-19%	-21%	16%	5%	13%	?
CCc1ccc(NC(=O)Cn2cnc3sc(C)c(S(=O)(=O)N4CCN(c5ccccc5OC)CC4)c3c2=O)cc1	2.1%	?	14%[46.1 µM]	nt	?	nt	nt	?
O=C(O)CCCn1cc(NC(=O)COc2ccccc2F)cn1	2.8%	8%&8%[46.1 µM]	?	1%	-11%	2%	6%	10µM*!
CC(=O)N1N=C(c2ccc(C)o2)CC1c1ccc(Br)cc1 (stereo unspecified)	-2.7%	-1%	4%	-13%	6%	-8%	-7%	10%
Cc1cc(=O)n2nc(N3CCCC(C(=O)NCc4ccc(F)cc4)C3)sc2n1 (stereo unspecified)	nt	4%[46.1 µM]	29%[46.1 µM]	-2%	nt	14%	6%	-12%
COc1ccc(C(C)=O)cc1CSc1nc2nc(C)cc(C)n2n1	nt	-1%[46.1 µM]	nt	1%	nt	5%	nt	27%
CCOC(=O)c1c(C)[nH]c(C(=O)COC(=O)c2ccc(N3CCCC3=O)cc2)c1C	2.5%	23%	-20%	-2%	12%	-9%	-7%	17%
Cn1c(=O)c2c(nc(N/N=C/c3ccc(OC(=O)c4ccco4)cc3)n2Cc2ccccc2Cl)n(C)c1=O	?	?	?	-1%	32µM*	13%	13%	?
CCN1CCN(c2nnc(-n3cccc3C(=O)NCc3ccccc3OC)s2)CC1	1.8%	nt	-17%[46.1 µM]	nt	-13%	nt	nt	3%

Additional compounds follow:
SMILES	Cruzain Triton	MARV entry inh	Lassa entry inh	SARS PLP yeast	Cruzain noTriton	RE007 growth inh	NS1 inh	2A StopGo
Cc1ccc(OCC(=O)Nc2ccc(Cl)c(-c3nc4ccccc4[nH]3)c2)cc1C	-3.7%	?	-20%[46.1 µM]	nt	?	nt	nt	?
COc1ccc(CCN(C)CC(O)c2ccccc2)cc1OC (stereo unspecified)	nt	3%[46.1 µM]	20%	-10%	nt	8%	nt	-6%
COc1ccccc1NC(=S)NC(C)=O	nt	10%[46.1 µM]	8%	-1%	nt	-4%	-1%	3%
CCOC(=O)Cc1csc(NC(=O)Nc2ccc(C)cc2)n1	nt	-18%[46.1 µM]	?	-2%	nt	4%	-10%	-3%
CC1=Nc2cc(C(=O)N3CCCC3)ccc2Sc2c(C)ccc(C)c21	nt	nt	nt	6%	nt	4%	-14%	0%
COc1c(C)cccc1C(=O)Nc1ccc(OCC(=O)N2CCOCC2)cc1C	nt	-3%	-14%	-1%	nt	-2%	8%	8%
CC1CCN(S(=O)(=O)c2ccc3c(ccn3CCC(=O)NCc3ccc(N(C)C)cc3)c2)CC1	-7.4%	nt	?	nt	16%	nt	nt	2%
